eIF4H inh: inhibitors of RNA binding by human eIF4H; 0.94% of 290,000 active; eIF4H fluorescence polarization binding assay; inhibition, % at 35 µM;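 active = 50% or more with normal probe brightness, or confirmed in later tests; about a fifth of its hits are not listed in these tables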;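 note: calls also rest on retests at 20 µM and on dose response follow-up; 0% = protein and probe with vehicle and 100% = probe without protein; strong numbers were not always called active; many hits fall short of the cut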
CSC inhib: blocks cancer stem cells. inhibition, % at 7.5 µM. AID 2717. 1.1% of 300,000 active. cancer stem cell-like cells viability, luminescence;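 active = mean at 75% or more and at least half the replicates too; tested in HMLE shEcad cells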;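 note: 0% = median of negative and 100% = median of positive control wells; the first replicate is given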
MT1-MMP act inh: MT1-MMP (human) activation inhibition; AID 651647; GFP/RFP ratio change, % at 20 µM; HT1080 RFP-PRO-GFP cells, GFP/RFP ratio fluorescence, overnight; percent of plate control window, DMSO zero; P50281; 0.061% of 360,000 active;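 active = GFP/RFP ratio change of at least 30% with cell ATP level not reduced by more than half and red fluorescence within 50% of control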; note: strong numbers were not always called active
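Assay system: RFP-PRO-GFP reporter HT1080 cells; read-out basis: GFP/RFP fluorescence ratio; benchmarks: DMSO wells and RFP-L50D-GFP cells; doses: 20 µM single dose, 1% DMSO; schedule: overnight cell settling, then overnight compound exposure, 37 °C, 5% CO2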
HIV Env fusion: blocks HIV Env-driven cell-cell fusion. HeLa-JRFL Env/CEM21 cell fusion, luciferase. inhibition, % at 12.3 µM. 1.1% of 360,000 active. AID 651610;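 active = mean replicate inhibition score of at least 50 and every replicate individually at or above 50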;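 note: 0% = plate neutral controls and 100% = maraviroc near 300 nM; one replicate is shown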
Rce1 inhib: yeast Ras-converting enzyme inhibition | calls only | AID 2563 | yeast membranes, quenched prenylated peptide cleavage fluorescence | 0.27% of 290,000 active | Q03530;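 active = fall in fluorescence gain of 50% or more versus controls, with final raw signal at or below 3038400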;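 note: plate controls were neutral control wells for no effect and wells lacking membranes for full effect; tested at 10 µM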
Target sequence (Q03530 whole entry, looked up): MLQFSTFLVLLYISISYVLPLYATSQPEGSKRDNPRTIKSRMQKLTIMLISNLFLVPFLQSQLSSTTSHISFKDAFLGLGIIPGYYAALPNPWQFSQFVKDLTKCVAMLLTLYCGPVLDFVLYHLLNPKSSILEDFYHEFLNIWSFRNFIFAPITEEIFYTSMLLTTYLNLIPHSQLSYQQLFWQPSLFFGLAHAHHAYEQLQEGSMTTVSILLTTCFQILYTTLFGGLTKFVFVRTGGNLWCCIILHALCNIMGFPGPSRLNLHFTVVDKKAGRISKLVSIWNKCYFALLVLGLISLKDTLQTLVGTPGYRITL
PABP polyA inh: PABP-poly(A) binding inhibition; 1% of 290,000 active; P11940; PABP-poly(A) RNA binding, fluorescence polarization; inhibition, % at 35 µM;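 active = 50% or more with normal probe brightness, or confirmed in later tests; about a fifth of its hits are not listed in these tables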;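 note: calls also rest on retests at 20 µM and on dose response follow-up; controls were probe without protein and protein plus probe with vehicle; some compounds called inactive have numbers as strong as hits; many hits fall short of the cut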
Target sequence (P11940 whole entry, looked up): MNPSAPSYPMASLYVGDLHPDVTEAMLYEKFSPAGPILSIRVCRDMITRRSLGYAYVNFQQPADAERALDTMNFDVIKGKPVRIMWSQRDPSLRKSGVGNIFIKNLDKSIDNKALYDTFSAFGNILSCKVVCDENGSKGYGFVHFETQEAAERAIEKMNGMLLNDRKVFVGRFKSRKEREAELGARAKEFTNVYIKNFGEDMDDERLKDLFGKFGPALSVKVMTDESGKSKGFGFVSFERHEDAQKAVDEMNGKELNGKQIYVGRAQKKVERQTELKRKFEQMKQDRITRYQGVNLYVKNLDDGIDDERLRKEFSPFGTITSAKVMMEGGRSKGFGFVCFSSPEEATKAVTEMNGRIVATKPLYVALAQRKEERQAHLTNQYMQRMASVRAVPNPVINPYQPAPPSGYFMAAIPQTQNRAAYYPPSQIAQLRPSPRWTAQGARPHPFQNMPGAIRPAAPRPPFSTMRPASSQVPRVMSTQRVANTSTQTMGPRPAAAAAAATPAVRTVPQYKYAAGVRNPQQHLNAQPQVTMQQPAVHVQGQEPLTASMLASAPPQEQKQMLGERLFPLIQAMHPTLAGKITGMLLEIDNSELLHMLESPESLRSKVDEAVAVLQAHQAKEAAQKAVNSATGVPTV
Yeast UUG start: modulators of start codon recognition fidelity in yeast; 0.13% of 350,000 active; S. cerevisiae UUG-firefly luciferase reporter, luminescence/redox ratio; activity score, % at 18.7 µM;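 active = replicate mean at a twofold rise or more, about +100% in these data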;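 note: firefly luciferase made from a UUG start codon reports start codon fidelity; reporter light over untreated wells divided by growth signal over untreated wells; some hits fall short of that in this replicate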
eIF4H inh retest: further read-out of eIF4H inh, marked with its call; inhibition, %; compound at 20 µM; confirmation average;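 mean of two retest wells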
PABP polyA inh retest: recorded beside PABP polyA inh, whose call it bears; inhibition, %; compound at 20 µM; confirmation repeats;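 mean of two retest wells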
MT1-MMP act inh RFP: recorded beside MT1-MMP act inh, whose call it bears; RFP signal change, %; measured here: RFP expression control read;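 0 = vehicle wells; hits needed this value within 50% of zero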
The depositor's hits bear a star; i = inactive; nt = no result given.

SMILES | eIF4H inh | CSC inhib | MT1-MMP act inh | MT1-MMP act inh RFP | HIV Env fusion | Rce1 inhib | PABP polyA inh | Yeast UUG start | others
CC(=Nc1ccc2c(c1)nc(CO)n2C)C1=C(O)CC(C)(C)CC1=O | -0.8 | -12.0 | 7.0 | 1.8 | 9.3 | i | -3.5 | -7.6
COc1ccc(C)cc1NC(=O)CN(C)S(=O)(=O)c1cc(C)ccc1OC | 1.1 | 6.4 | 4.1 | -1.6 | nt | i | -1.1 | nt
Cn1c(=O)c2c(ncn2CC(=O)N/N=C/c2c[nH]c3ccccc23)n(C)c1=O | 5.4 | -8.8 | nt | nt | nt | i | -5.6 | nt
CC(=O)c1c(Nc2ccc3c(c2)OCCO3)oc(C)cc1=O | -0.3 | 1.2 | -1.9 | 2.9 | -3.2 | i | 7.1 | -45.9
CN1C(=O)c2ccccc2Sc2ccc(NC(=O)NC3CC3)cc21 | -8.3 | -7.5 | -7.5 | -2.9 | nt | i | -8.2 | nt
CCN(C(=S)NC(=O)C1CC1)c1ccccc1 | -7.1 | -5.1 | 5.4 | 5.9 | nt | i | 2.0 | -22.7
COc1cc(C(=O)NCCC(c2ccccc2)c2ccccc2)cc(OC)c1OC | -7.9 | -8.6 | 0.1 | -6.5 | 2.3 | i | 4.1 | 0.1
C=CCSc1nnc(NC(=O)CCN2C(=O)C3CC=CCC3C2=O)s1 (stereo not drawn) | nt | nt | 1.2 | -0.3 | -8.6 | nt | nt | -20.9
c1ccc(CSc2nnc3ccc(-c4ccncc4)nn23)nc1 | -7.6 | -14.3 | -2.8 | 1.3 | 1.0 | i | 59.0 | -19.2 | eIF4H inh retest=-2.3;PABP polyA inh retest=6.4
CCO[C@H]1OC(C(=O)NC2CC2)=C[C@@H](c2csc3ccccc23)[C@@H]1CCCO | -8.5 | 3.9 | 1.9 | -0.9 | 11.4 | i | -6.0 | 1.7
COc1ccccc1NC(=O)CN1CCN(CC(=O)Nc2ccc3c(c2)OCO3)CC1 | 4.4 | 25.1 | 4.3 | 1.5 | nt | nt | -2.5 | -6.6
Cc1ccc2c(c1)C=CC(C)(C)S2=O (stereo not drawn) | 4.8 | 5.0 | 3.4 | 2.9 | nt | i | 10.9 | nt
CN(C(=O)COC(=O)/C=C/c1ccc(F)cc1)c1c(N)n(Cc2ccccc2)c(=O)[nH]c1=O | nt | nt | -0.4 | 1.7 | 7.1 | i | nt | -19.8
CC(=O)Nc1nc(C)nc(-c2ccccc2OC(C)=O)n1 | -0.1 | -0.4 | 3.1 | 3.2 | nt | i | -4.5 | -9.9
Cc1ccc(-c2csc3nnc(SCc4csc(C)n4)n23)cc1 | 2.0 | -7.1 | 4.6 | -1.3 | 23.5 | i | -2.7 | -26.2
CCCCOc1ccc(C(=O)NNC(=O)C2C3C=CC(C3)C2C(=O)O)cc1 (stereo not drawn) | -10.8 | nt | 1.4 | 0.4 | nt | i | -0.2 | -7.0
N#Cc1c(-c2ccco2)cc(-c2ccccn2)nc1N | 70.5* | 0.2 | -10.5 | -4.4 | nt | i | 62.7* | -39.8
CCC(C)C(NC(=O)[C@@H](NC(=O)c1ccccc1F)C(C)C)C(=O)OC (stereo partly drawn) | -4.8 | 6.8 | -0.4 | 0.7 | 1.1 | i | 1.4 | -3.2
O=C(NCc1cccnc1)c1cccc(F)c1 | -5.4 | -3.8 | 2.2 | 0.8 | nt | i | -6.6 | -24.1
CC(C)NC(=O)N1CCN(c2ccncc2S(=O)(=O)N2CCOCC2)CC1 | -3.0 | 0.7 | -0.6 | 3.1 | nt | i | 0.5 | -21.6
Cc1nc(-c2ccc(S(=O)(=O)Oc3ccc(Cl)cc3Cl)s2)cs1 | 2.5 | 60.5 | 2.8 | -3.7 | -14.8 | i | -4.9 | -30.6
O=C(Cc1ccc(Cl)cc1)Nc1cc(Cl)ccn1 | nt | 5.1 | -7.4 | -5.3 | -19.3 | i | nt | nt
C/C(=N\N(Cc1ccccc1)c1ccccc1)c1cccnc1 | -7.2 | -17.9 | 1.9 | -8.4 | 3.0 | i | -0.5 | nt
Cc1ccccc1NC(=O)C1(C)Cc2ccccc2C(=O)O1 (stereo not drawn) | -2.3 | 5.0 | 0.6 | -1.9 | nt | i | -2.3 | -23.7
Cc1ccc(NC(=O)Cn2cnc3sc(C(=O)NCCN(C)C)c(C)c3c2=O)cc1Cl | -12.4 | nt | nt | nt | nt | i | 1.1 | nt
COc1cc(C(C)=O)ccc1OCC(O)CN1CCN(c2ccc(C)c(C)c2)CC1 (stereo not drawn) | -16.9 | 0.3 | 1.0 | 2.2 | 9.6 | i | -12.1 | -14.2
O=C(CC(Nc1ccccc1)c1ccccc1)C1CC1 (stereo not drawn) | -4.5 | -6.5 | -2.0 | 2.5 | 3.8 | i | -0.6 | nt
CN(CC(=O)Nc1cccc(F)c1)C(=O)c1ccc(OCC2CCCO2)cc1 (stereo not drawn) | -13.9 | -11.2 | -3.0 | -7.4 | -6.9 | i | -8.7 | 23.6
O=C(Cc1ccc(NC(=O)C2CCN(C(=O)C3CC3)CC2)cc1)Nc1cccc(C(=O)N2CCCCC2)c1 | nt | nt | 1.4 | 1.4 | -14.6 | nt | nt | -7.2
CCCCCCn1c(C)nc2c(c1=O)c1nc3ccccc3nc1n2/N=C/c1ccco1 | 38.3 | 2.0 | 4.9 | 1.7 | 11.1 | i | 19.9 | -6.4

Compounds listed so far with an NH in an aromatic ring (2):
SMILES | eIF4H inh | CSC inhib | MT1-MMP act inh | MT1-MMP act inh RFP | HIV Env fusion | Rce1 inhib | PABP polyA inh | Yeast UUG start | others
Cn1c(=O)c2c(ncn2CC(=O)N/N=C/c2c[nH]c3ccccc23)n(C)c1=O | 5.4 | -8.8 | nt | nt | nt | i | -5.6 | nt
CN(C(=O)COC(=O)/C=C/c1ccc(F)cc1)c1c(N)n(Cc2ccccc2)c(=O)[nH]c1=O | nt | nt | -0.4 | 1.7 | 7.1 | i | nt | -19.8

(more compounds)
SMILES | eIF4H inh | CSC inhib | MT1-MMP act inh | MT1-MMP act inh RFP | HIV Env fusion | Rce1 inhib | PABP polyA inh | Yeast UUG start | others
CCc1ccc(N2NC(=O)/C(=C/C=C/c3ccco3)C2=O)cc1 | 10.7 | 14.6 | -1.1 | 2.0 | -5.7 | i | 1.6 | nt
O=C(c1ccc2nc(-c3ccccc3)c(-c3ccccc3)nc2c1)N1CCCCC1 | -2.8 | 47.0 | -0.2 | -4.0 | 13.9 | i | 0.4 | nt
O=C(CCn1c(=O)oc2ccccc21)NCc1ccco1 | -6.9 | 0.5 | -0.2 | 0.9 | nt | i | -7.7 | -2.0
CN(CC(=O)NC1CCCCC1)S(=O)(=O)c1cccc2cccnc12 | 8.6 | -6.1 | -1.1 | 2.8 | 18.6 | i | 4.5 | -20.3
C#CCNS(=O)(=O)c1ccc(F)cc1Br | nt | nt | -2.1 | 3.5 | -43.8 | nt | nt | -0.8
Cc1cc(NC(=O)CCCn2ccc([N+](=O)[O-])n2)n(Cc2ccc(F)cc2)n1 | 1.4 | 0.2 | -6.5 | -7.5 | 1.1 | i | -6.6 | nt
CSC[C@H]1CN(Cc2ccccc2)C(=O)[C@@H]1CC(=O)Nc1ccc(Br)cc1 | nt | nt | 4.3 | 2.4 | 25.8 | nt | nt | -2.9
Cc1cccc(C(=O)Nc2nnc(S(=O)(=O)N3CCOCC3)s2)c1 | -10.8 | -2.7 | 0.1 | -1.5 | 11.2 | i | 1.1 | -7.2
CCOC(=O)C1(Cc2ccccc2C)CCCN(C(=O)c2ccnn2C)C1 (stereo not drawn) | -4.7 | -3.5 | -0.2 | -0.1 | -5.1 | nt | 9.7 | -5.4
Cc1cccc(OCC(O)Cn2c(=N)n(CCN3CCCCC3)c3ccccc32)c1 (stereo not drawn) | -2.8 | 10.7 | -2.5 | -9.6 | -47.8 | i | -0.7 | -7.2
Cc1ccccc1-c1cccc([C@@H]2C[C@H]3[C@H](CON3C)CN2C(=O)CCc2ccccc2)c1 | nt | nt | 3.4 | -1.7 | 39.5 | nt | nt | -5.0
CCc1nc2sc3c(c2c(=O)n1CCO)CCC3 | -2.4 | -13.1 | -4.2 | 0.4 | -8.2 | i | -16.4 | -3.1
Cc1ccc(CNS(=O)(=O)c2c(N)n(C)c(=O)n(C)c2=O)cc1 | -1.2 | -7.2 | -0.8 | 2.4 | 0.9 | i | -0.1 | 0.0
CC1CCN(C(=O)COC(=O)c2nn(C)c(=O)c3ccccc23)CC1 | -10.8 | -13.3 | 1.2 | 3.9 | nt | i | 4.3 | -3.2
C=CCSc1nnc(-c2cccnc2)o1 | -2.7 | 4.3 | 22.7 | 42.6 | -19.6 | i | -3.9 | -25.0
COC(=O)c1ccccc1S(=O)(=O)N1CCC(C(=O)NC2=NCCS2)CC1 | nt | -19.0 | 3.6 | 3.7 | 5.9 | nt | nt | 2.0
CCOCCCn1c(=N)c(C(N)=S)cc2c(=O)n3cccc(C)c3nc21 | 86.8* | nt | -7.9 | -5.3 | 9.1 | i | 77.5* | -17.4 | eIF4H inh retest=95.3*;PABP polyA inh retest=83.7*
CCOc1ccc(NC(=O)c2cc3cc4ccc(OC)cc4nc3o2)cc1 | -5.8 | -0.4 | 11.8 | 1.5 | -4.9 | i | -20.2 | -5.3
CCOc1ccc(NC(=O)C2CCCN(c3c(CC)c(C)nc4ncnn34)C2)cc1 (stereo not drawn) | -5.8 | -4.1 | -0.8 | -9.0 | 0.1 | i | 12.8 | -8.5
COc1ccc(CCN(C)C2CCCN(C(=O)Cn3cnnn3)C2)cc1OC (stereo not drawn) | -3.3 | 11.6 | 0.6 | 2.3 | -1.4 | i | -16.5 | 20.7
Cc1cc([N+](=O)[O-])ccc1NC(=O)C(C)[n+]1ccccc1 (stereo not drawn) | 8.8 | -12.7 | -1.8 | 1.7 | -23.6 | nt | -5.2 | nt
CC(C)N1CCC(NC(=O)NC2CCCCC2)CC1 | -4.7 | -0.7 | 3.4 | 7.4 | -12.1 | i | 0.6 | nt
COc1cccc(/C=N/NC(=O)c2ccc(N(C)S(=O)(=O)c3ccccc3)cc2)c1OC | -4.0 | nt | 5.0 | 4.1 | 17.3 | i | -9.8 | 10.1
Cc1ccc(CN2CCN(CC3CC4C=CC3C4)CC2)cc1 (stereo not drawn) | -1.6 | -11.9 | 1.0 | 6.2 | nt | i | 8.5 | -7.0
Cc1ccc(NC(=O)CN(C)C(=O)c2ccccc2OCc2c(C)noc2C)cc1 | nt | -12.0 | 0.1 | -2.2 | nt | i | nt | -4.4
Cc1noc(/C=C/Nc2ccc(F)cc2F)c1[N+](=O)[O-] | 69.8 | 19.6 | -0.6 | 0.8 | -126.9 | i | 15.7 | nt | eIF4H inh retest=-19.0;PABP polyA inh retest=33.5
O=C(Nc1nc2c(Cl)cccc2s1)C1CC1 | -13.2 | -5.2 | -11.3 | -6.7 | -4.7 | i | 12.3 | -22.5
COc1ccc(Cl)cc1NC(=S)Nc1cccc(C)c1 | 3.6 | -3.3 | 1.4 | -9.3 | 10.2 | i | -0.7 | -10.5
COc1ccc(-c2cc(C(=O)NCc3ccc(Cl)cc3)no2)cc1OC | 2.5 | 2.1 | 8.3 | -0.4 | -59.8 | i | -3.0 | -0.2
O=C(/C=C/c1ccc(-c2ccc(F)cc2)o1)N1CCCC1 | -10.2 | -13.4 | -2.5 | 1.3 | -64.8 | i | 7.6 | nt
Cc1ccc(OCC(=O)N(C)CC(=O)Nc2ccc(N3CCOCC3)cc2)cc1 | nt | -5.0 | 5.4 | 2.9 | -0.3 | nt | nt | -4.0
O=C(CSc1ncn[nH]1)Nc1cc(S(=O)(=O)N2CCCC2)ccc1Cl | -0.3 | -11.9 | -3.5 | -2.5 | -15.8 | i | -11.5 | -8.1
COc1ccc(CC(=O)OCc2cc3ccc(C)cc3[nH]c2=O)cc1 | -10.2 | -11.0 | 2.7 | 2.4 | nt | i | 13.6 | -38.0

Source: PubChem

These rows are one share of the data; count on the stated rates, not on these rows.
